StopGo RLuc = lowers the Renilla signal of an FMDV 2A StopGo reporter; HEK cells with a luciferase reporter of 2A StopGo recoding; Potency, µM (highest dose often 57.5 µM), for the others: top-dose signal change, negative = less light; 120,000 compounds, 0.32% hits; AID 1745857; active means well fitted falling curve with a large enough effect; inconclusive means small, poorly fitted or top-dose-only effect; inactive means no such curve, though single readings can be large or run the other way; note: nearly all actives have a fitted effect of over 55% in size; overnight with compound
2A firefly = FMDV 2A StopGo reporter, firefly signal; HEK cells with a luciferase reporter of 2A StopGo recoding; Potency, µM (titrated, usually from 57.5 µM), inactives show at the highest dose signal change, negative = less light; 120,000 compounds, 0.23% hits; active = well fitted falling curve with a large enough effect; inconclusive = small, poorly fitted or top-dose-only effect; inactive = no such curve, though single readings can be large or run the other way; note: nearly all actives have a fitted effect of over 60% in size; overnight with compound
The depositor's hits bear a star; ? = inconclusive; [ ] = remark or other dose. % is set by controls: 0 for no effect and ±100 for the full control effect; potency is the fitted concentration of half-maximal effect.

#1 CC(C)NC(=S)N/N=C/c1ccc([N+](=O)[O-])cc1
#2 CSC1=NC2(CCN(C(=O)NC3CCCCC3)CC2)N=C1c1ccc(C)c(C)c1
#3 CCOC(=O)c1cc(NC(=O)c2ccc(Cl)c(Cl)c2)ccc1N1CCOCC1
#4 O=C(NCc1ccc(C(=O)N2CCCCC2)cc1)c1ccc(C(F)(F)F)cc1
#5 Cc1ccc(S(=O)(=O)NCCc2csc(-c3cccc(F)c3)n2)c(C)c1
#6 COc1cc(NC(=O)CCSc2nc(-c3ccco3)cc(C(F)(F)F)n2)cc(OC)c1OC
assay / entry	1	2	3	4	5	6
2A firefly	0%	-4%	19%	-25%	18%	1%
StopGo RLuc	-2%	1%	22%	-7%[1.06 µM]	266%[activator]	6%

#7 COc1cccc(CSc2nc3cc(OC)c(OC)cc3c3nc(CCn4nc(C)cc4C)nn23)c1
#8 CN(C)C(=O)CCSc1ccc(F)cc1
#9 Cn1c(=O)c2c(nc(CN3CCN(c4ccccc4F)CC3)n2Cc2ccc(F)cc2)n(C)c1=O
#10 Cc1ccsc1CCN1C(=O)N(c2ccccc2)C(=O)C1CC(=O)Nc1ccc(Cl)cc1 (stereo not drawn)
#11 CCOc1ccc(CC(=O)NCC(c2cccs2)S(=O)(=O)c2ccc(F)c(C)c2)cc1 (stereo not drawn)
#12 CCc1ccc(CNC(=O)C2CCN(c3nc4ccccc4nc3C(F)(F)F)CC2)cc1
assay / entry	7	8	9	10	11	12
2A firefly	8%	104%[activator]	-15%	38%[activator]	-4%	-15%
StopGo RLuc	-1%	2%	1%	267%[activator]	0%	-2%

#13 COc1ccccc1NC(=O)c1cc2c(OC)c(OC)c(OC)cc2[nH]1
#14 C#C[C@]1(O)CC[C@H]2[C@@H]3CCc4cc(OC5CCCC5)ccc4[C@H]3CC[C@@]21C
#15 Cc1ccc(S(=O)(=O)N2CCN(CCNC(=O)c3cccc(C(F)(F)F)c3)CC2)cc1
#16 Cc1ccccc1-c1nnn(Cc2cc(=O)oc3c(C)c(C)ccc23)n1
#17 CCCOc1c(OC)cccc1C1CC(=O)Nc2c1c(C)nn2-c1ccc(=O)[nH]n1 (stereo not drawn)
#18 COc1ccc(-n2c(SCc3nc(-c4ccc(C)cc4)no3)nnc2-c2ccncc2)cc1
assay / entry	13	14	15	16	17	18
2A firefly	83%[activator]	2%[11.5 µM]	?	18%	-13%	-18%
StopGo RLuc	64%[activator]	-3%	-26%	1%	-9%	-12%

#19 O=C(NCCc1ccc(Cl)cc1)c1ccc(Cn2c(=O)c3cccn3c3cccnc32)cc1
#20 COc1cc(C2SCCS2)ccc1OC(=O)COc1ccccc1C
#21 NS(=O)(=O)c1ccc(N/N=C2/CCc3ccccc32)c([N+](=O)[O-])c1
#22 CCC1CCC(C(=O)NC(C(=O)NCCN(CC(C)C)CC(C)C)C(C)C)CC1 (stereo not drawn)
#23 CCc1ccc2nc(-c3ccncc3)cc(C(=O)O)c2c1
#24 CCN(C(=O)C1CCC(CNS(=O)(=O)c2cccc3nsnc23)CC1)c1ccc(C)c(C)c1 (stereo not drawn)
assay / entry	19	20	21	22	23	24
2A firefly	7%	27%	11%	0%	17%	-10%
StopGo RLuc	-2%	-5%[1.06 µM]	5%	-3%	7%	2%

Complete entries from above. Order of screens: 2A firefly	StopGo RLuc
CCOc1ccc(CC(=O)NCC(c2cccs2)S(=O)(=O)c2ccc(F)c(C)c2)cc1 (stereo not drawn) is listed with -4%	0%
COc1cc(C2SCCS2)ccc1OC(=O)COc1ccccc1C is listed with 27%	-5%[1.06 µM]
CCC1CCC(C(=O)NC(C(=O)NCCN(CC(C)C)CC(C)C)C(C)C)CC1 (stereo not drawn) is listed with 0%	-3%
CCOC(=O)c1cc(NC(=O)c2ccc(Cl)c(Cl)c2)ccc1N1CCOCC1 is listed with 19%	22%
Cc1ccccc1-c1nnn(Cc2cc(=O)oc3c(C)c(C)ccc23)n1 is listed with 18%	1%

New compounds follow:
#25 Cc1ccc2nc(/C(C#N)=C\c3ccc(-c4cc(C(=O)O)cc(C(=O)O)c4)o3)[nH]c2c1
#26 COc1cc(/C=C/c2nc(-c3ccccc3)nc(-c3ccccc3O)n2)cc(OC)c1OC
#27 COc1ccc(Nc2nc(Nc3ccc(OC)cc3OC)nc(N3CCOCC3)n2)c(OC)c1
#28 COc1ccc(C2C(=O)N(C3CCCCC3)CC(=O)N2Cc2ccccc2Cl)cc1OC (stereo not drawn)
#29 COc1ccc(-c2cn3c(n2)sc2cc(C(=O)NC4CCCc5ccccc54)ccc23)cc1 (stereo not drawn)
#30 CCCN1C(=O)c2[nH]nc(-c3ccccc3O)c2C1c1ccc(OCc2ccccc2)c(OCC)c1 (stereo not drawn)
assay / entry	25	26	27	28	29	30
2A firefly	31%	13%	-18%	-1%	63%[activator]	-15%
StopGo RLuc	-19%	-5%	-11%	1%	12%	4%

As entered above:
StopGo RLuc, `CCCN1C(=O)c2[nH]nc(-c3ccccc3O)c2C1c1ccc(OCc2ccccc2)c(OCC)c1` (stereo not drawn) is entered as 4%
2A firefly, `COc1ccc(Nc2nc(Nc3ccc(OC)cc3OC)nc(N3CCOCC3)n2)c(OC)c1` is entered as -18%
StopGo RLuc, `COc1ccc(-c2cn3c(n2)sc2cc(C(=O)NC4CCCc5ccccc54)ccc23)cc1` (stereo not drawn) is entered as 12%
2A firefly, `Cc1ccc2nc(/C(C#N)=C\c3ccc(-c4cc(C(=O)O)cc(C(=O)O)c4)o3)[nH]c2c1` is entered as 31%
StopGo RLuc, `COc1cc(/C=C/c2nc(-c3ccccc3)nc(-c3ccccc3O)n2)cc(OC)c1OC` is entered as -5%

Other structures.
#31 Cc1ccc2c(C)c(CCC(=O)Nc3ccc(F)cc3F)c(=O)oc2c1
#32 CCNC(=O)C(C)NC(=O)CCc1ncc(-c2ccc(CC(C)C)cc2)o1 (stereo not drawn)
#33 O=C(Nc1ccc2c3c(cccc13)CC2)c1ccc(Cl)cc1
#34 COc1cc(C(CC(=O)NCc2ccc(F)cc2)N2Cc3ccccc3C2=O)cc(OC)c1OC (stereo not drawn)
#35 Cc1ccc(-n2c(=O)c3c(cnn3C)n(Cc3ccc(Cl)cc3)c2=O)cc1
#36 CCN(c1ccccc1)C(CNS(=O)(=O)c1ccccc1)c1ccccc1 (stereo not drawn)
assay / entry	31	32	33	34	35	36
2A firefly	-1%	0%	0%	1%	10%	1%
StopGo RLuc	1%	-2%	7%	67%[activator]	-6%	203%[activator]

#37 CCCCCCCCSCCC(=O)O
#38 CCOC(=O)C1(C)C=C(Nc2cccc(C(=O)O)c2)C(=O)N1c1cccc(C(=O)O)c1 (stereo not drawn)
#39 Cc1ccc(C(=O)/C=C/c2cc(Br)c(O)c(Br)c2)cc1
#40 CC(C)(C)c1ccc(/C=N/c2sc3c(c2C#N)CCCC3)cc1
#41 CC#CC[N+](C)(C)CC(=O)c1ccccc1
#42 CCOC(=O)c1c(-c2ccccc2)csc1NC(=O)c1cc(-c2ccc(Cl)cc2)on1
assay / entry	37	38	39	40	41	42
2A firefly	13%	-19%	69%[activator]	0%	19%	-10%
StopGo RLuc	-3%	-14%	-29%	8%	-1%	-4%

From entry 1 as far as 2, copied from above:
#1 CC(C)NC(=S)N/N=C/c1ccc([N+](=O)[O-])cc1
#2 CSC1=NC2(CCN(C(=O)NC3CCCCC3)CC2)N=C1c1ccc(C)c(C)c1
assay / entry	1	2
2A firefly	0%	-4%
StopGo RLuc	-2%	1%

(more compounds)
#43 Cc1cc2nn(-c3ccccc3)nc2cc1NC(=O)c1cccc2c(Cl)cccc12
#44 CCCCc1cc(=O)oc2c(C)c(OCC)ccc12
#45 Cc1nc2nc(N(Cc3ccc(F)cc3)C(=O)c3ccco3)[nH]n2c(=O)c1C
#46 CCN(C(=O)C1CC1)C1CCCCC1
#47 CC(C)(C)C(O)/C=C/c1ccc2c(c1)OCO2 (stereo not drawn)
#48 Cc1ccccc1-n1c(C)nnc1SCC(=O)Nc1c(C#N)c(C)c(C)n1Cc1ccccc1
assay / entry	43	44	45	46	47	48
2A firefly	19%	38%[activator]	13%	-3%	31%[activator]	-3%
StopGo RLuc	-8%	9%	13%	0%	5%	8%

#49 CCOC(=O)N1CCc2c(sc3c2c(=O)n(-c2ccc(F)cc2)c(=O)n3CC(=O)c2ccc(Cl)cc2)C1
#50 Fc1ccc(/C=N/NC(=S)NCc2ccccc2)cc1F
#51 COc1cccc(-c2csc(NC3OC(=O)c4c3ccc(OC)c4OC)n2)c1 (stereo not drawn)
#52 Cc1ccc(NC(=O)CN2C(=O)CCSc3ccccc32)c(C)c1
#53 Cc1cccc(N2CCN(C(C(=O)O)c3cn(C)c4ccc(C(=O)O)cc34)CC2)c1C (stereo not drawn)
#54 COc1ccc(CNC(=O)Cn2c(=O)nc(-c3ccccc3)c3cc(Cl)ccc32)cc1OC
assay / entry	49	50	51	52	53	54
2A firefly	-9%	24%	165%[activator]	0%	-4%	12%
StopGo RLuc	-7%	65%[activator]	-4%	16%	-9%	-3%

2 of the compounds above, with values under each structure.
Under each structure – 2A firefly | StopGo RLuc
(32) CCNC(=O)C(C)NC(=O)CCc1ncc(-c2ccc(CC(C)C)cc2)o1 (stereo not drawn)
 : 0% | -2%
(33) O=C(Nc1ccc2c3c(cccc13)CC2)c1ccc(Cl)cc1
 : 0% | 7%

Continuation.
#55 CCOC(=O)c1cnc(N2CCN(c3ccc(OC)cc3)CC2)c2ccccc12
#56 CNC(=O)C1CCC(Cn2c(=O)c3sccc3n(CC(=O)NCc3cccc(OC)c3)c2=O)CC1 (stereo not drawn)
#57 COc1cc(/C=c2\s/c(=C\C(=O)C(C)(C)C)[nH]c2=O)cc(Cl)c1OC(C)C
#58 Cc1cc(C=O)cc(C)c1OCc1ccccn1
#59 CCCN(CC(=O)Nc1cccc(C(=O)NC2CC2)c1)Cc1nnc(-c2cccs2)o1
#60 CSc1ccccc1NC(=O)c1ccc(OCC2CCCO2)cc1 (stereo not drawn)
assay / entry	55	56	57	58	59	60
2A firefly	14%	5%	9%	25%	76%[activator]	3%
StopGo RLuc	0%	-6%	-10%	9%	70%[activator]	11%

#61 Cc1ccc(OCC(=O)Nc2cccc(-c3nc4ccccc4s3)c2)cc1
#62 CCCCc1cc(=O)oc2cc(OCC(=O)NCc3ccc(S(N)(=O)=O)cc3)ccc12
#63 O=C(Nc1ccccc1Sc1ccccc1)C1CC=CCC1 (stereo not drawn)
#64 Cc1ccccc1NC(=O)c1ccc(F)c(S(=O)(=O)N2CCN(c3ccccc3F)CC2)c1
#65 CCc1ccccc1NC(=O)Cn1c(=O)nc(-c2ccccc2)c2ccccc21
#66 COc1ccc(C(=O)c2cn(Cc3ccc(C)cc3)c3cc4c(cc3c2=O)OCO4)cc1
assay / entry	61	62	63	64	65	66
2A firefly	119%[activator]	-1%	-2%	-17%	83%[activator]	-24%
StopGo RLuc	9%	-2%	8%	1%	12%	0%

#67 CCOc1ccc(NC(=O)N2CCC(CN3CCCCCC3)CC2)cc1
#68 CC(C)c1ccc(NC(=O)CN2C(=O)CSc3ccc(S(=O)(=O)N4CCCC4)cc32)cc1
#69 Cc1cc(C)c(C(=O)COC(=O)c2ccc(-c3ccccc3)cc2)c(C)c1
#70 CC(C)c1cnc2c(c1SCC(=O)N1CCCCC1)c(=O)n(C)c(=O)n2C
#71 CCOc1ccc(-n2c(=O)c3c(C)c(C)sc3n(CC(=O)N3CCC(C)CC3)c2=O)cc1
#72 Cc1cc(S(=O)(=O)N2CCC(NS(=O)(=O)c3cccs3)CC2)ccc1Br
assay / entry	67	68	69	70	71	72
2A firefly	-6%	-23%	6%	-16%	-1%	-5%
StopGo RLuc	-11%	32%[activator]	4%	68%[activator]	-9%	176%[activator]

#73 COc1ccc(NC(=O)CSc2nccn2Cc2ccco2)c(OC)c1
#74 COc1ccc(NC(=O)c2ccc3c(c2)OCCCO3)cn1
#75 COc1cccc(NC(=O)Cc2c(C)c3c(O)cc(C)cc3oc2=O)c1
#76 Cc1nc(-c2ccc(Cl)cc2)sc1CCNC(=O)c1cccs1
#77 O=c1c2ccccc2n2c(-c3ccccc3F)nnc2n1CCc1ccccc1
#78 CCCCn1c(N)c(N(CC)C(=O)c2ccc(OC(F)(F)F)cc2)c(=O)[nH]c1=O
assay / entry	73	74	75	76	77	78
2A firefly	140%[activator]	-9%	4%	-42%	77%[activator]	2%
StopGo RLuc	41%[activator]	3%	-9%	?	39%[activator]	19%

#79 Cc1cc2c(cc1S(=O)(=O)NCc1ccccc1Cl)OCC(=O)N2
#80 Cc1ccc(NC(=O)c2cc3ncccn3n2)cc1C
#81 C=CCn1c(NCCN(CC)CC)nc2c1c(=O)[nH]c(=O)n2C
#82 COCc1cccc(C(=O)NCc2ccc(C(=O)OC)cc2)c1
#83 CCOc1ccc(CN(CCc2ccc3c(c2)OCO3)Cc2ccc(CC)cc2)cc1
#84 O=C(OCc1cccc(Cl)c1)c1ccc(O)cc1
assay / entry	79	80	81	82	83	84
2A firefly	3%	128%[activator]	-3%	21%	-15%	113%[activator]
StopGo RLuc	189%[activator]	-1%	-4%	14%	-16%	10%

#85 COc1cccc2c1Oc1nc(-c3ccccc3)nc(SCC(=O)N3CCCCC3)c1C2
#86 c1ccc(CNCC(c2ccccc2)N2CCCC2)cc1 (stereo not drawn)
#87 COc1cccc(-n2nnc(-c3nc(-c4ccccc4F)no3)c2C)c1
#88 COc1cccc(CCC(=O)Nc2nc(C)c(C(C)=O)s2)c1OC
assay / entry	85	86	87	88
2A firefly	14%	-4%	85%[activator]	110%[activator]
StopGo RLuc	-1%	-13%	-8%	23%

Source: PubChem (National Center for Advancing Translational Sciences (NCATS))
